High-throughput results deposited in PubChem BioAssay by National Center for Advancing Translational Sciences (NCATS).
VDR inhibitor: inhibitors of human vitamin D receptor; AID 504847; P11473; VDR-SRC2-3 peptide fluorescence polarization, 2 h; 0.93% of 400,000 active; Potency, µM, without a hit: max response, negative = inhibition, usual class: inhibitors; active = well fitted inhibition curve with a large enough effect; inconclusive = small, poorly fitted or top-dose-only effect, or another doubt; inactive = no such curve, though single readings can be large or run the other way; note: series mostly up to about 120 µM
Target sequence (P11473 whole entry, looked up): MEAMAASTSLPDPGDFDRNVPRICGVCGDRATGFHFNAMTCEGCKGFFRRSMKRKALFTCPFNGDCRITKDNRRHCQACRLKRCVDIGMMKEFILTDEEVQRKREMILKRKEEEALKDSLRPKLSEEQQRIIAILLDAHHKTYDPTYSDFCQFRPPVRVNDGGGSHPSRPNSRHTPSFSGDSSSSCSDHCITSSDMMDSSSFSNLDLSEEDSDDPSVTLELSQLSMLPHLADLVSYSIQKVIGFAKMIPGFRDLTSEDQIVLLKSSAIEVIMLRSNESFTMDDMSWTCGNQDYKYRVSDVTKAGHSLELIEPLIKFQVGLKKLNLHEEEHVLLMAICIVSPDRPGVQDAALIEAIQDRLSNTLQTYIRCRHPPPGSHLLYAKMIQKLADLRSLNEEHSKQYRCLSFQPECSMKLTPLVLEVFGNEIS
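Fluorescence polarization assay of small-molecule disruption of VDR binding to coregulator peptide SRC2-3. Compounds and controls pin-transferred, then read after 2 h incubation at ambient room temperature.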
* marks the source's active call; other numbers are inactive results; u = inconclusive; & = joins results of further samples; ! = a repeat was not active. % is set by controls: 0 for no effect and ±100 for the full control effect; potency is the fitted concentration of half-maximal effect. Only part of the results is shown (hit frequency here may not be typical).

SMILES | VDR inhibitor
CSc1ncc(C(=O)Nc2ccc(Cl)cc2C(=O)c2ccccc2)c(C)n1 | 0%
C=CCn1c(O)c(Cc2ccc(OCC)cc2)c(=O)[nH]c1=O | -7%
CC1SC2(CN3CCC2CC3)NC1=O (stereo not given) | -13%
CCCCCCOC(=O)c1ccccc1N | 6%
COc1ccc(-n2c(/C=C\c3ccccc3F)nc3ccccc3c2=O)c(OC)c1 | 4%
CCC(c1ccc(C)cc1)N1C(=O)C2C3CCC(O3)C2C1=O (stereo not given) | -15%
C=CCN1C(=O)/C(=C/c2cc(C)n(-c3ccccn3)c2C)C(=O)NC1=S | -36%
CCC(C)N1C(=O)/C(=C\c2ccc(N3CCCCCC3)cc2)C(=O)NC1=S (stereo not given) | -8%
CCN1CCN(C(=O)COc2ccc3c(c2)C(=O)CC2(CCN(C(C)=O)CC2)O3)CC1 | -1%
CC(C)CN1CCN(Cc2ccc(F)cc2Cl)CC1CCO (stereo not given) | -4%
CC(C)c1ccc(NC(=O)CSc2nnc(OC(=O)N(C)C)n2C2CC2)cc1 | 5%
CCOP(=O)(OCC)c1cc(C)c(O)c(C(C)(C)C)c1 | -25%
CC(Cc1ccccc1)NC(N)=O (stereo not given) | 0%
CCC(=NCc1ccc2c(c1)OCO2)c1c(O)n(C)c(=O)n(C)c1=O | 12%
CC(CC(C#N)(c1ccccc1)c1ccccc1)N1CCOCC1 (stereo not given) | 0%
Cc1cc(O)c2c3c(c(=O)oc2c1)CCC(C)C3 (stereo not given) | -14%
CN1C(=O)N(C)C(=O)C2(Cc3cc([N+](=O)[O-])ccc3N(C)C2c2ccccc2)C1=O (stereo not given) | -17%
CN(C)CCCN=Cc1c(O)n(CCc2ccc(F)cc2)c(=O)[nH]c1=O | -16%
O=C(c1ccc(-c2ccccc2)cc1)C1CCCN(Cc2ccn[nH]2)C1 (stereo not given) | -7%
O=P1(NCCCn2cc[n+](Cc3nc4ccccc4[nH]3)c2)C=C(c2ccccc2)OC(c2ccccc2)=C1 | -6%
COC(=O)CC(=O)c1ccc2c(c1)OCO2 | -8%&2%
Cc1ccc(N2C(=O)NC(=O)/C(=C\C=C\c3ccco3)C2=O)cc1C | u
Fc1ccc(C(OCCN2CCN(C/C=C/c3ccccc3)CC2)c2ccc(F)cc2)cc1 | -17%
O=S(=O)(c1ccccc1)N1CCN2CCCC2C1 (stereo not given) | 3%
CCc1ccc(NC(=O)c2cccn(Cc3cccc([N+](=O)[O-])c3)c2=O)cc1 | 2%
CN1CCN(c2ccccc2N)CC1 | 2%
Cc1cccc(OCC(=O)N2CCN(Cc3ccc([N+](=O)[O-])cc3)CC2)c1 | -3%
CC1=CC(O)C(O)C2(C)C1CC1OC(=O)C(O)C3C(C)C(O)C4(O)OCC13C42 (stereo not given) | -16%
COc1ccc(C2CN(C)CC2C(=O)c2ccc(C)cc2)cc1Cl (stereo not given) | -14%
C=CCN1C[C@H](C)N([C@H](c2ccc(C(=O)N(CC)CC)cc2)c2cccc(OC)c2)C[C@H]1C | -8%&7%
CCOC(=O)CC1=C(C(=O)OCC)C2(C(=O)N1)C(C(=O)OC)=C(N)Oc1ccccc12 (stereo not given) | 1%
COC(=O)C1=C(c2ccc(F)cc2F)C[C@@H]2CC[C@H]1N2C(=O)NCCOc1ccccc1Cl | -5%
Cc1cccc(C2CC(=O)Oc3c2c(=O)oc2ccccc32)c1 (stereo not given) | -17%
C[C@]12CCC3C(CC[C@@H]4C[C@@H](O)CC[C@]34C)C1CC[C@@H]2O (stereo not given in full) | -16%
CCCCC/C=C\C/C=C\C/C=C\C/C=C\CCCCCC(=O)NCCO | 35µM*!
CC1OC(O[C@@H]2C(O)CC(O[C@@H]3C(O)C[C@@H](OC4CC[C@]5(C)[C@H](CC[C@H]6[C@@H]5CC[C@]5(C)C(C7=CC(=O)OC7)C(O)C[C@@]65O)C4)OC3C)OC2C)CC(O)C1O (stereo not given in full) | -2%
CCCC1COC(Cn2cncn2)(c2ccc(Cl)cc2Cl)O1 (stereo not given) | 50µM*!
CN1C(=O)NC(=O)/C(=C/c2ccc(C(=O)O)cc2)C1=O | u
COC(=O)C1=C(c2ccc(C(C)=O)cc2)C[C@@H]2CC[C@H]1N2C(=O)NCc1ccco1 | -15%
OC1/C(=C/c2ccc(C(F)(F)F)cc2)N2CCC1CC2 (stereo not given) | -7%
COc1ccccc1CN1CCN(Cc2ccc(Cl)cc2)CC1 | 1%
CCC(C)NS(=O)(=O)c1ccc(OCC(=O)N2CCN(CC)CC2)cc1 (stereo not given) | -3%
COCc1cc(OC(=O)N(C)C)nc2c1c(C)nn2C | 10%
C[C@]12CCC3C(CC[C@H]4C[C@H](O)CC[C@]34C)C1C[C@@H](O)[C@H]2O (stereo not given in full) | 6%
C#C[C@]1(O)CC[C@H]2[C@@H]3CCC4=CC(=O)CCC4=C3C=C[C@@]21CC | u
NC(=O)O | 9%
O=C(Cn1cc(C(=O)c2ccccc2)c2ccccc21)NCc1ccco1 | 8%
CC(=O)OC1C2CCC1C(N1CCCCC1)CC2 (stereo not given) | -10%
CCN(CC)S(=O)(=O)c1ccc(C(=O)NC2CN3CCC2CC3)cc1 (stereo not given) | 0%
Cc1cccc(OCC(=O)N2CCN(Cc3cc(=O)n4nc(-c5ccccc5Cl)sc4n3)CC2)c1 | 12%
O=C(COc1ccc(Cl)cc1)N(c1ccc(Cl)cc1)C1CN2CCC1CC2 (stereo not given) | -9%
COc1ccc2c(c1OC)CN1CCc3cc4c(cc3[C@H]1C2)OCO4 | 2%&-8%
COC(=O)C1=C(c2ccccc2)C[C@@H]2CC[C@H]1N2C | -3%
CC(C)(C)C(=O)c1cn(Cc2ccccc2)c2ccccc12 | -11%
CC(=O)c1c(O)c(C)c(O)c(Cc2c(O)c3c(c(C(=O)/C=C/c4ccccc4)c2O)OC(C)(C)C=C3)c1O | 40µM*
C=CC1CN2CCC1CC2C(OC(=O)OCC)c1ccnc2ccc(OC)cc12 (stereo not given) | -1%
O=CN1CCCCC1C1CC[C@H]2CCCCN2C1 (stereo not given in full) | -4%
O=c1ccc2[nH]cc(C3=CCNCC3)c2[nH]1 | 1%
Cc1nc2cc(-c3cccc(F)c3)nn2c(C)c1CCC(=O)N1CCC2(CC1)OCCO2 | 5%
C/C1=C\[C@@H](C)C/C=C/[C@H]2[C@@H]3O[C@]3(C)[C@@H](C)[C@H]3[C@H](Cc4c[nH]c5ccccc45)NC(=O)[C@]32C(=O)/C=C/C(=O)[C@@H]1O | u
(listing goes on)
SMILES | VDR inhibitor
CC(=C1C(=O)c2ccccc2C1=O)N1CCN(CCN=Cc2c(O)n(C)c(=O)n(C)c2=O)CC1 | -28%
c1ccc2c(CNC3CCCCC3)c[nH]c2c1 | 9%
Cc1cccc(C(=O)Nc2ccc(Cl)cc2C(=O)c2ccccc2)c1 | 1%
COc1cc(OC2CCN(C(C)=O)CC2)ccc1C(=O)N1CCC(N2C(=O)OCc3ccccc32)CC1 | 11%
Nc1ncnc2c1ncn2[C@@H]1O[C@H](COP(=O)(O)OP(=O)(O)OP(=O)(O)O)[C@H]2OC3(O[C@H]21)C([N+](=O)[O-])=CC(=[N+]([O-])[O-])C=C3[N+](=O)[O-] (stereo not given in full) | u
c1ccc(N2CCC3(CCNCC3)CC2)nc1 | u
O=P(c1ccccc1)(c1nc2ccccc2s1)N1CCOCC1 (stereo not given) | 5%
S=P(N1CCOCC1)(N1CC1)N1CC1 | 19%
O=C1CCCC2[C@@H]3CCCN4CCC[C@@H](CN12)C34 (stereo not given in full) | 3%
Cc1ccc(-n2c(O)c(C=NCc3cccnc3)c(=O)[nH]c2=O)cc1C | 1%
COC(=O)C1=C(c2c(C)noc2C)C[C@@H]2CC[C@H]1N2C(=O)NCc1ccc(C(F)(F)F)cc1 | -2%
COc1ccccc1-c1nn2c(=O)cc(CN3CCN(C(=O)COc4ccccc4Cl)CC3)nc2s1 | 6%

Part of the list above, reformatted.
O=P(c1ccccc1)(c1nc2ccccc2s1)N1CCOCC1 (stereo not given)
- VDR inhibitor: 5%

S=P(N1CCOCC1)(N1CC1)N1CC1
- VDR inhibitor: 19%

O=C1CCCC2[C@@H]3CCCN4CCC[C@@H](CN12)C34 (stereo not given in full)
- VDR inhibitor: 3%

Cc1ccc(-n2c(O)c(C=NCc3cccnc3)c(=O)[nH]c2=O)cc1C
- VDR inhibitor: 1%

More compounds:
SMILES | VDR inhibitor
CN(C)CCOC(=O)c1cn(Cc2ccccc2)c2ccccc12 | 0%
Cn1c(=O)cc(SCC(=O)N2CCC3(CC2)OCCO3)c2ccccc21 | 3%
S=C(NC1CCCCC1)N1CCC(c2cnc[nH]2)CC1 | -6%&0%
CCC(C)(O)C(=O)OC1C(=O)OC2CC3C(C)=CC(=O)C(O)C3(C)C3C4(O)OCC23C1C(C)C4O (stereo not given) | -22%
O=c1[nH]c(=S)[nH]c(O)c1N=Nc1ccc(OC(F)F)cc1 | -12%
N#Cc1ccc(CN2CC3(CCNCC3)C2)cc1 | -16%
c1ccc(C(c2ccccc2)c2ccncc2)cc1 | -9%
CC(=O)CC(c1ccccc1[N+](=O)[O-])c1c(O)c2ccccc2oc1=O (stereo not given) | -20%
CCN1CCN(C(=O)Cc2coc3cc(C)cc(C)c23)CC1 | -4%
CC(=O)O[C@H]1CC[C@@]2(C)[C@H](C1)C(=O)C[C@H]1[C@@H]3CC[C@@H]4[C@@H](CN5C[C@@H](C)CC[C@H]5[C@@]4(C)O)[C@@H]3C[C@@H]12 | 7%
CCOC(=O)c1c(C)c(P(=S)(N2CCOCC2)N2CCOCC2)n(C)c1C | 7%
CC12C=CC(=O)C=C1CCC1C2C(=O)CC2(C)C(=O)CCC12 (stereo not given) | -21%

The list goes on (four carried over from the part before).
SMILES | VDR inhibitor
CCN1CCN(C(=O)Cc2coc3cc(C)cc(C)c23)CC1 | -4%
CC(=O)O[C@H]1CC[C@@]2(C)[C@H](C1)C(=O)C[C@H]1[C@@H]3CC[C@@H]4[C@@H](CN5C[C@@H](C)CC[C@H]5[C@@]4(C)O)[C@@H]3C[C@@H]12 | 7%
CCOC(=O)c1c(C)c(P(=S)(N2CCOCC2)N2CCOCC2)n(C)c1C | 7%
CC12C=CC(=O)C=C1CCC1C2C(=O)CC2(C)C(=O)CCC12 (stereo not given) | -21%
CC#C[C@]1(O)CC[C@H]2C3C=C(C)C4=CC(=O)C=C[C@]4(C)[C@H]3[C@@H](O)C[C@@]21C (stereo not given in full) | 0%
O=C1CCC[C@H]2[C@H]3CCCN4CCCC(=CN12)[C@@H]34 | -6%
C=CCn1c(O)c(/C=C2/C=CC=N2)c(=O)[nH]c1=O | -10%
COc1cccc(C2C([N+](=O)[O-])=C(N)Oc3c2c(=O)oc2ccccc32)c1 (stereo not given) | -19%
COc1ccc(NC2=NCCCS2)cc1OC | -3%
CN1C(=O)N(C)C(=O)C(NS(=O)(=O)c2ccc(N)cc2)(c2ccccc2)C1=O | 0%
CCCC(C)(COC(N)=O)COC(=O)NC1CC1 (stereo not given) | 2%
CSc1ccc(CN2CCN(C(=O)COc3ccc(C)cc3)CC2)cc1 | 5%&-3%
CC(=O)OC1CCC23C(=O)OC45CCC(C6=CC(=O)OC6)C4(C)CCC2C5CCC3(O)C1 (stereo not given) | 6%
COc1ccc(-c2cc(C(=O)N3CCC4(CC3)OCCO4)c3ccccc3n2)cc1 | 8%
COc1ccccc1N1CCN(Cc2cccc(Br)c2)CC1 | -26%
CN1C(=O)[C@@H](NC(=O)c2cc3ccccc3[nH]2)N=C(c2ccccc2)c2ccccc21 | -1%
C[C@H]1[C@@H](c2ccccc2)O[C@@H](c2ccccc2Br)N1C | 11%
COC(=O)C1=C(N)OC(C)=C(C(C)=O)C12C(=O)N(C)c1ccccc12 (stereo not given) | -15%
CC1(C)C(C(Cl)Cl)C2(Cl)C(Cl)C(Cl)C1(Cl)C2(Cl)Cl (stereo not given) | -14%
CN1CCN(c2ccc3c(c2)S(=O)(=O)c2ccccc2C3=O)CC1 | -7%
Cc1cc(Cl)ccc1OCC(=O)O | 9%
CSc1ccc(CN2CCN(Cc3ccccc3Cl)CC2)cc1 | -10%
C=C1C([C@@H](O)C[C@H](C)C2O[C@@]3(CCCCO3)CC[C@H]2C)OC2CC[C@@]3(CC[C@@H](/C=C/[C@@H](C)C4CC(C)=C[C@]5(O4)O[C@H](C[C@@](C)(O)C(=O)O)CCC5O)O3)OC2[C@@H]1O (stereo not given in full) | 3%
COC(=O)C1=C(c2cccc(OC)c2OC)C[C@@H]2CC[C@H]1N2C(=O)NCCNC(C)=O | -14%
COc1ccc(C(=O)C2CCCN(Cc3ccc(C)s3)C2)cc1OC (stereo not given) | -19%
CC1CC2CCC(O2)C(C)C(=O)OC(C)CC2CCC(O2)C(C)C(=O)OC(C)CC2CCC(O2)C(C)C(=O)OC(C)CC2CCC(O2)C(C)C(=O)O1 (stereo not given) | 10%
O=C1NC(=O)N(CCC2=CCCCC2)C(=O)/C1=C/c1cccs1 | u
COc1ccc(C(=O)O)cc1OC | 4%&9%
O=P(O)(O)Cc1c(Cl)cccc1Cl | 1%
C/C(=N\NC(=O)c1ccncc1)c1c(O)n(Cc2ccccc2)c(=O)[nH]c1=O | -25%
C=CCn1c(O)c(C(C)=NCCO)c(=O)[nH]c1=O | -6%
O=C(O)c1ccccc1NC(=O)N1C[C@H]2C[C@@H](C1)c1cccc(=O)n1C2 | -3%
CC1(C)C(C(=O)NN2C(=O)c3ccccc3C2=O)C1(C)C | 8%
CCCN(CCC)C1CCc2cccc(O)c2C1 (stereo not given) | 3%&8%
COC(=O)C1=C(c2cccc(OCc3ccccc3)c2)C[C@@H]2CC[C@H]1N2C(=O)NCCOc1ccccc1 | -18%
COc1ccc2[nH]c(C)c(CCNCc3cc(OC)c4c(c3)OCO4)c2c1 | 10%
Cn1cc(CCC(=O)N2CCC3(CC2)OCCO3)c2ccccc21 | 12%
